# Vif TR-FRET: inhibitors of Vif binding to APOBEC3G peptide, primary screen, biochemical, TR-FRET, GST-Vif 1-94, biotin-A3G peptide, dose response retest (AID 1117319); Virion infectivity factor (Human immunodeficiency virus type 1 group M subtype B (isolate …; TR-FRET GST-Vif / biotin-A3G peptide binding; higher % means a stronger effect; test concentration not given here; strong numbers were not always called active; inhibition, %, or IC50 in µM where a hit was titrated; 0.57% of 260,000 active;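 active = above the screen mean plus three standard deviations and confirmed in dose response; inconclusive = results disagree or hit not tested in dose response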;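 also: Vif residues 1-94 fused to GST binding biotinylated APOBEC3G peptide 110-148; 0% = full assay without inhibitor and 100% = GST in place of GST-Vif; retest series ran down from 100 µM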
# HNF4A DNA FP: change in binding of human HNF4A to DNA, primary screen, biochemical, fluorescence polarization, FITC-DNA. Hepatocyte nuclear factor 4-alpha (Homo sapiens), P41235. 1 h. activity change, % at 10 µM. 0.3% of 360,000 active; in the data active = activity change above about 30%, passing the limit was not always enough;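 also: controls were the assay level and a saturating level of protein; the project sought stronger binding though the title names inhibitors; some compounds called inactive have numbers as strong as hits; positive values seem to mean higher polarization but the record does not say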
# Target sequence (P41235 whole entry, looked up): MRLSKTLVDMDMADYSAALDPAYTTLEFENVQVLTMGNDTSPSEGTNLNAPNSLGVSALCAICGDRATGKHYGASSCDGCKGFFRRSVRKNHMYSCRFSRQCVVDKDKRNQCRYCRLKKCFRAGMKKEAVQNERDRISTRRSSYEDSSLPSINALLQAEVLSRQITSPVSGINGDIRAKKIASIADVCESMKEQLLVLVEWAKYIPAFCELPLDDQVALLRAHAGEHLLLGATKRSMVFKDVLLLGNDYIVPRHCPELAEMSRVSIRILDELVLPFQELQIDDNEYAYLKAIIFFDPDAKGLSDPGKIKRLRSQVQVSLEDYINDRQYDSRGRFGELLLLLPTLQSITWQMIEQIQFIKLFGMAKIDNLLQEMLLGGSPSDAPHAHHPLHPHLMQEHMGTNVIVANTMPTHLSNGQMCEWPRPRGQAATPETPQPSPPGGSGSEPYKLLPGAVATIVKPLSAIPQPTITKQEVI
# MLL AF4-AF9 inh: inhibitors of AF4 peptide binding to AF9, primary screen, biochemical, AlphaScreen, biotin-AF4 peptide, FLAG-AF9, single point | inhibition, % at 10 µM | Protein AF-9 (Homo sapiens), P42568 | AID 651704, 2012 | 0.47% of 350,000 active;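 active = every replicate reaching a set inhibition limit, whatever the replicate mean, cut at about 25% in these data; inconclusive = mean inhibition reaches that limit but some replicates miss it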;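 also: 0% = plate neutral control median and 100% = total signal loss; the record names both 10 and 1 µM as test concentration; the first replicate is given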
# ALR inh: inhibitors of human ALR sulfhydryl oxidase, primary screen, biochemical, H2O2 detection, HRP-luminol luminescence, single point. FAD-linked sulfhydryl oxidase ALR (Homo sapiens), P55789. purified ALR, DTT oxidation. inhibition, % (test concentration not listed). 3.8% of 290,000 active. AID 485317, 2010;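 active = mean and each replicate at 75% or more; inconclusive = only one of the two met; inactive = neither met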;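 also: stock transfer was 7.5 nL into about 7.5 µL; 0% = neutral wells and 100% = wells with inactivated enzyme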
# Target sequence (P55789 whole entry, looked up): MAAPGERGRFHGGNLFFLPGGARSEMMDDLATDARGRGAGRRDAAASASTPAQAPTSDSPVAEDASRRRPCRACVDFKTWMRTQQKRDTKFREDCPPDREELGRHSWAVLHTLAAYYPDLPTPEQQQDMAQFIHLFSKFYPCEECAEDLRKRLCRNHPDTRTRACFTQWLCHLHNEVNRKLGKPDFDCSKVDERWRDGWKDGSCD
# E coli growth: E. coli growth inhibition, primary screen, OD600; Escherichia coli growth, 23 h; stronger effect = lower value; OD600 absorbance (concentration not given with the values); 0.21% of 330,000 active;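 active = OD600 absorbance below the run mean of sample wells minus 3.6 SD, in any replicate, cut at about 0.56 in these data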;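 also: stock transfer was 300 nL into about 60 µL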
# FGF22 binding: binders of human FGF22 protein, primary screen, FGF22 synaptogenesis inhibitor project, biophysical, thermal shift, single point; Fibroblast growth factor 22 (Homo sapiens), Q9HCT0; recombinant FGF22 thermal shift, SYPRO orange fluorescence; percent of sucrose octasulfate shift, DMSO zero; calls only at 9.99 µM; 1.5% of 340,000 active; AID 651658, 2012;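 active = melting point raised past a set limit in the mean and every replicate; inconclusive = no clear call; three in four hits are not shown here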
# Target sequence (Q9HCT0 whole entry, looked up): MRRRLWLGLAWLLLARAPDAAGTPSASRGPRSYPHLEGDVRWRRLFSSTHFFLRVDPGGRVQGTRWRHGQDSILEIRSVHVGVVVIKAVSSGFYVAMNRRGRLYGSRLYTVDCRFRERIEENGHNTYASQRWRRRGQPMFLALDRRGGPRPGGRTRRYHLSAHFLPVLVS
# rRNA inh HTS: reduced GFP signal of wild-type E. coli, primary screen, bacterial rRNA inhibitor project, GFP/RFP fluorescence, OD600, single point | E. coli WT GFP vs humanized-ribosome RFP mutants, 24 h; stronger effect = lower value; DMSO median 0, no signal -100 | GFP signal change (wild-type ribosome), % (no concentration beside the values) | 1.6% of 350,000 active | AID 720706, 2013;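 active = significant combined selectivity score with lowered wild-type GFP, culture density cut under 30%, mutant RFP and density less affected; inactive = any of these conditions unmet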; also: one replicate is shown; some compounds called inactive have numbers as strong as hits
# rRNA inh HTS OD600: second read-out of rRNA inh HTS, no call of its own (marks repeat the call); OD600 change, %; measured here: OD600 growth;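 optical density of the mix in the first replicate; 0 = DMSO median and -100 = no signal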
# rRNA inh HTS RFP: recorded beside rRNA inh HTS, whose call it bears; RFP signal change, %; measured here: RFP humanized mutant strains;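 first replicate; 0 = DMSO median and -100 = no signal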
# * = called active by the depositor; i = inactive; ? = inconclusive; nt = no result given; & = joins results of further samples.
SMILES,Vif TR-FRET,HNF4A DNA FP,MLL AF4-AF9 inh,ALR inh,E coli growth,FGF22 binding,rRNA inh HTS,rRNA inh HTS OD600,rRNA inh HTS RFP
CCCn1c(N)c(C(=O)CN2CCN(S(=O)(=O)c3cccs3)CC2)c(=O)[nH]c1=O,-5%,-1.7,nt,-12,0.71,nt,nt,nt,nt
CCN(CC(=O)Nc1ccc(NC(C)=O)cc1)C(=O)C1CCCN(C(=O)c2ccc(Cl)cc2)C1 (centres undefined),-5%,3.4,3.9,-14,0.68,i,4,8,-0.7
COc1cc(OC)c(NC(=O)C2CCCO2)cc1Cl (centres undefined),-7%,-1.8,-3.5,4,nt,i,4,8,-1.0
Cc1ccc(NC(=O)CN2C(=O)/C(=C\c3cccs3)SC2=S)cc1,24%,1.8,-1.0,nt,0.75,i,nt,nt,nt
Cc1csc(-c2nc3ccccc3n2C(C(=O)NC(C)(C)C)c2ccccc2)c1 (centres undefined),nt,-3.9,nt,nt,nt,i,-7,-15,0.1
c1ccc(-n2ncc3c(NCc4cccs4)ncnc32)cc1,8%,1.8,nt,-4,0.71,nt,-10,-13,-5.1
Cc1ccccc1NC(=O)Cc1nc(COC(=O)c2cc([N+](=O)[O-])ccc2N)cs1,nt,-1.3,1.7,-5,0.7,i,3,12,10.0
COc1cccc(S(=O)(=O)Nc2ccc3c(c2)C(=O)N(C)C[C@H](OC)[C@H](C)CN(C(=O)Cc2cccnc2)[C@@H](C)CO3)c1,nt,nt,1.7,nt,nt,i,-4,3,-1.4
COc1ccc(S(=O)(=O)N(C)C[C@H]2OCCCC[C@H](C)Oc3ccc(NS(=O)(=O)c4ccccc4)cc3C(=O)N([C@@H](C)CO)C[C@H]2C)cc1,nt,nt,-0.1,nt,nt,i,-2,3,1.2
O=C(c1cccc(Cl)c1)N1CCC(N2CCC(C(=O)N3CCCC3)CC2)CC1,nt,3.1,1.9,-7,0.7,i,10,1,5.3
CCc1ccc(NCc2nc(-c3ccccc3)no2)cc1,5%,-0.3,nt,18,0.7,nt,nt,nt,nt
COc1ccnc(Oc2ccccc2)n1,-8%,-2.0,-2.0,-7,0.71,i,4,10,4.8
CCOC(=O)c1sc(=NC(=O)/C=C/c2ccccc2)n(C)c1C,9%,-1.9,-2.6,5,0.72,i,4,-5,-3.1
CCC1C(=O)NCCN1Cc1nc(-c2ccc(C)s2)oc1C (centres undefined),6%,3.1,-0.2,-3,0.71,i,3,2,-1.6
CC[C@@H](NCCCn1ccc(NC(=O)OCc2ccccc2)nc1=O)c1ccccc1,-1%,0.6,4.5,nt,nt,i,4,4,5.7
Cc1ccc(S(=O)(=O)N2CCOCC2)cc1C(=O)NCCc1ccc(Cl)cc1,-1%,-1.6,-0.8,-3,0.7,i,-1,-19,-1.1
CN(C)S(=O)(=O)c1ccc(C(=O)Nc2ccc3ncccc3c2)cc1,nt,-1.2,-16,nt,0.68,i,-16,-12,-1.7
O=C(COc1ccccc1[N+](=O)[O-])Nc1ccc(N2CCN(C(=O)c3cccs3)CC2)cc1,9%,5.3,-3.4,-4,0.71,i,13,6,0.7
CC(C)CC#Cc1ccc([C@H]2[C@H]3CN(C(=O)Nc4cc(F)ccc4F)CC(=O)N3[C@H]2CO)cc1,nt,nt,-0.4,nt,nt,i,-15,-41,32
COc1cc(NC(=O)C2CCCN2S(=O)(=O)c2ccc3c(c2)CCC(=O)N3)cc(OC)c1 (centres undefined),1%,2.2,-0.2,-5,0.7,i,-1,-4,0.4
CC1(C)CC2CC(C)(CN2C(=O)COC(=O)c2ccc(NC(=O)CC#N)cc2)C1 (centres undefined),nt,2.2,-6.8,98*,0.72,i,12,3,3.3
C[C@H]1CCCCO[C@H](CN(C)C(=O)Nc2cccc3ccccc23)[C@@H](C)CN([C@@H](C)CO)C(=O)c2cc(NC(=O)CCCN(C)C)ccc2O1,nt,nt,16,nt,nt,i,-6,-20,10
Cc1cc(OC(=O)c2ccc(Cl)cc2)cc(=O)n1C,19%,0.7,nt,45,0.74,nt,nt,nt,nt
CCO/N=C1\C(=O)N(c2ccccc2)c2ccccc21,-17%,0.7,6.9,0,nt,i,-5,-4,1.4
CC(C)N(C(=O)COC(=O)c1ccc(Cl)c(S(N)(=O)=O)c1)C(C)C,-7%,1.4,-15,-8,0.68,i,7,2,0.9
O=C(O)C1=C[C@@H](C2CC2)C[C@@H](OCc2ccc(CO)cc2)O1,7%,0.1,-2.4,1,nt,i,16,25,-1.6
Cc1ccc(Oc2ccc(C(=O)NC3CCSC3=O)cn2)cc1 (centres undefined),18%,1.6,nt,99*,0.75,nt,nt,nt,nt
Fc1ccc(NCc2cn3ccccc3n2)cc1,?,6.5,nt,61,0.73,nt,nt,nt,nt
CCOC(=O)[C@]12CCCC=C1N(Cc1ccc(Cl)cc1Cl)C(=O)[C@H](CC(=O)NCc1cccc3ccccc13)C2,nt,-0.4,-0.9,nt,nt,i,nt,nt,nt
O=c1c2ccccc2n(Cc2ccc(F)cc2)c(=O)n1C1CCCC1,2%,2.0,nt,5,0.77,nt,nt,nt,nt
CSC(=NS(=O)(=O)c1ccccc1)SC,3%,-0.6,nt,2,0.7,nt,nt,nt,nt
Cc1[nH]nc2c1C(c1ccc(OC(=O)c3ccco3)cc1)C(C#N)=C(N)O2 (centres undefined),18%,-3.2,nt,52,0.79,nt,nt,nt,nt
Cc1cc(C)n2cc(CSc3ccccn3)nc2n1,nt,-1.6,1.8,1,0.69,i,8,8,-1.7
O=C1NNC(c2ccccc2)=N/C1=C\c1ccccc1,nt,2.3,1.6,12,0.68,i,8,2,1.8
COc1ccc(NC(=O)Nc2ccc3c(c2)CC(=O)N([C@@H](C)CO)C[C@H](C)[C@@H](CN(C)Cc2ccc4c(c2)OCO4)O3)cc1,nt,nt,2.2,nt,nt,i,-4,-4,3.9
Cc1nn(C)c(C(=O)Nc2ccc(S(=O)(=O)NC34CC5CC(CC(C5)C3)C4)cc2)c1Br,nt,3.9,nt,-3,0.68,nt,nt,nt,nt
COc1cc(CN2CCC(C(=O)NC(c3ccc(-c4ccccc4)cc3)c3cnccn3)CC2)cc(OC)c1 (centres undefined),nt,4.9,9.0,nt,nt,i,-44,-63,14
Cc1ccc(Nc2nc(C(=O)N3CCC(C(=O)N4CCN(C)CC4)CC3)cs2)cc1,23%,-1.9,nt,10,0.63,nt,nt,nt,nt
CCCn1c(N)c(N(CCOC)C(=O)c2ccc([N+](=O)[O-])c(C)c2)c(=O)[nH]c1=O,nt,-0.1,-2.5,0,0.63,i,4,3,1.8
O=c1[nH]c(=O)n(CCOc2ccc(Cl)cc2)cc1Br,-1%,-1.7,nt,-10,0.76,nt,nt,nt,nt
CCN(C(=O)COC(=O)c1ccccc1NCCO)C1CCS(=O)(=O)C1 (centres undefined),5%,-6.0,-2.4,-2,0.7,nt,10,6,0.4
C[C@@H]1CN([C@H](C)CO)S(=O)(=O)c2ccc(-c3cccc(F)c3)cc2O[C@H]1CN(C)C(=O)Nc1cc(F)ccc1F,nt,nt,2.0,nt,nt,i,-3,9,1.0
Cc1cc(=O)[nH]c(SCC(=O)c2ccc3c(c2)NC(=O)CO3)n1,nt,2.6,-15,69,0.7,i,7,8,4.2
CSc1nc(NCCCO)c2c3c(sc2n1)CN(C)CC3,68%,0.3,-1.8,nt,0.61,i,6,-5,3.5
Cc1ccc(Nc2ccncc2S(N)(=O)=O)cc1,nt,0.7,-2.0,-1,0.62,i,7,10,-1.1
COc1ccc(N=C2SCC(=O)N2CCc2ccc(OC)c(OC)c2)cc1,-7%,2.8,-1.2,1,0.66,i,0,4,2.2
COc1ccc(NC(C)=O)cc1S(=O)(=O)Nc1ccc2c(c1)OCCO2,14%,-3.6,-0.8,-4,0.67,i,12,5,2.5
Cc1oc(C(C)(C)C)cc1C(=O)Nc1ccc(C(=O)O)cc1,26%,-1.0,nt,9,0.69,nt,nt,nt,nt
COc1ccc(NC(=O)C2CCN(S(=O)(=O)c3ccc(Br)s3)CC2)cc1OC,2%,1.7,nt,-16,0.71,nt,nt,nt,nt
O=C(CN1CCN(c2ccccn2)CC1)Nc1ccc([N+](=O)[O-])cc1C(=O)Nc1ccccc1F,2%,0.7,0.5,8,0.66,i,-7,-4,-0.3

# Record cards, as listed above. Order of values: Vif TR-FRET | HNF4A DNA FP | MLL AF4-AF9 inh | ALR inh | E coli growth | FGF22 binding | rRNA inh HTS | rRNA inh HTS OD600 | rRNA inh HTS RFP
# `Cc1ccc(Oc2ccc(C(=O)NC3CCSC3=O)cn2)cc1` (centres undefined) across the screens: 18% | 1.6 | nt | 99* | 0.75 | nt | nt | nt | nt
# `Fc1ccc(NCc2cn3ccccc3n2)cc1` across the screens: ? | 6.5 | nt | 61 | 0.73 | nt | nt | nt | nt

# Continued:
SMILES,Vif TR-FRET,HNF4A DNA FP,MLL AF4-AF9 inh,ALR inh,E coli growth,FGF22 binding,rRNA inh HTS,rRNA inh HTS OD600,rRNA inh HTS RFP
COc1ccc(-c2cc(C(=O)Nc3c(F)cc(F)cc3Br)no2)cc1,1%,1.7,-8.8,4,0.68,i,3,9,0.6
CN(C)C(=O)c1cn(-c2ccccc2)nc1-c1cccs1,20%,0.7,nt,-5,0.63,nt,nt,nt,nt
CON(C)C(=O)/C=C/c1ccc([B-](F)(F)F)cc1,nt,-1.3,-1.6,nt,nt,i,12,5,-3.8
CCCOc1ccc(CNC(=O)c2ccc3c(c2)N(CC)CCS3)cc1,nt,0.0,-1.5,-6,0.79,i,-6,-7,0.1
Cc1ccc(N(C(=O)c2csnn2)C(C(=O)NC2CCCCC2)c2cccnc2)cc1C (centres undefined),nt,-0.2,0.6,-2,0.7,i,1,5,-0.4
COc1ccc(/C(N)=N/OC(=O)CCC2CCCC2)cc1,nt,-2.5,-1.0,7,0.71,i,-8,-6,1.3
C#CCOC(=O)CCCC(=O)Nc1ccccc1OC,1%,1.9,nt,-10,0.72,nt,nt,nt,nt
C[C@H](CO)N1C[C@H](C)[C@H](CN(C)Cc2ccc(C(F)(F)F)cc2)Oc2ccc(NS(=O)(=O)c3ccc(Cl)cc3)cc2CC1=O,nt,nt,2.4,nt,nt,i,7,3,-1.1
O=C(O)C[C@H]1c2ccccc2S(=O)(=O)N1C1CCCCC1,nt,-0.9,0.2,3,nt,i,6,9,-0.9
O=C(NC1CC1)C1=C[C@H](c2c[nH]c3ccccc23)C[C@H](OCc2ccc(CO)cc2)O1,nt,8.7,4.5,-22,nt,i,5,2,6.6
O=C(NCc1ccccc1)C1=C[C@H](c2ccc(C(F)(F)F)cc2)C[C@H](OCc2ccc(CO)cc2)O1,nt,-3.2,-8.3&-3.0,nt,nt,i,0,-17,-6.9
CC1CCCN(S(=O)(=O)c2ccc(NC(=O)CN3CCCCC3)cc2)C1 (centres undefined),1%,1.9,2.1,-14,0.67,i,7,7,-0.1
CNC[C@@H]1Oc2ccc(NS(=O)(=O)c3ccc(C)cc3)cc2C(=O)N([C@H](C)CO)C[C@@H]1C,nt,nt,5.4,nt,nt,i,-1,0,-0.1
Clc1ccc2nc(-c3ccc(Cl)nc3)[nH]c2c1,5%,-3.8,-2.5,nt,nt,i,-46,-73,2.1

# Assay outcomes deposited in PubChem BioAssay by several laboratories.

# An excerpt; count on the stated rates, not on these rows.
